# From PubChem BioAssay
# StopGo reporter = FMDV 2A StopGo reporter, luciferase signal; human cells with a luciferase reporter of 2A StopGo recoding; control for the full effect not named in the record; Potency, µM (doses to about 57.9 µM), for inactives: top-dose signal change, negative = less light; 410,000 tested, 1.2% active; AID 1159524; active = well fitted falling curve with a large enough effect; inconclusive = small, poorly fitted or top-dose-only effect; inactive = no such curve, though single readings can be large or run the other way; tested in HEK293T cells; further: on the % scale 0 is the no-effect control and ±100 the full control effect; nearly all actives have a fitted effect of over 45% in size; luciferase light after 4 h
# Marburg entry inh = inhibitors of Marburg virus binding or cell entry; Marburg virus pseudotyped entry inhibition, cell reporter; control for the full effect not named in the record; about a third of the inactives were read at about 46 µM; Potency, µM (top dose mostly 37.8 µM), for the others: top-dose activity change, negative = inhibition, actives largely listed as inhibitors; 300,000 tested, 1.8% active; AID 540276; active = well fitted inhibition curve with a large enough effect; inconclusive = small, poorly fitted or top-dose-only effect, or effect the other way; inactive = flat fitted curve, though single readings scatter; tested in HEK293 cells; about a fifth of its hits are not listed in these tables; further: on the % scale 0 is the no-effect control and ±100 the full control effect; luciferase read-out
# Cruzain noTriton = cruzain (T. cruzi) inhibition without detergent | P25779 | purified cruzain, Z-FR-AMC fluorescence, no detergent | Potency, µM, for the others: max response, negative = inhibition, actives largely listed as inhibitors | 200,000 tested, 2.3% active | AID 1476;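 further: plate controls were enzyme without inhibitor for no effect and buffer without enzyme for full effect; nearly all actives have a fitted effect of over 40% in size; top concentration of the series not given in the record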
# Target sequence (P25779 123-467 limits assumed): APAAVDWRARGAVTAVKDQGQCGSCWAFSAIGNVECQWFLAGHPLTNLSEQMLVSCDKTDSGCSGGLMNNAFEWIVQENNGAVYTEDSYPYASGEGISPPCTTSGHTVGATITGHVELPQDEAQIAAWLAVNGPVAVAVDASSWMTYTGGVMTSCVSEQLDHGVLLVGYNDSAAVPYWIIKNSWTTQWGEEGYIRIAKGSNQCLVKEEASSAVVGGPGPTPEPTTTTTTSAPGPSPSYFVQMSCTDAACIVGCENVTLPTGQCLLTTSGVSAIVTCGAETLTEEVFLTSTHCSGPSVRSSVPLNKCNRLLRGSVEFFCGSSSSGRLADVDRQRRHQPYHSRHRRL
#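 Detergent-free condition (0.00005% Triton X-100) in acetate buffer pH 5.5 with DTT. 1.5 nM enzyme and compound were pre-mixed 15 min, then 2 uM Z-FR-AMC substrate added; reaction progress from fluorescence change between first and third reads (60 s).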
# Lassa entry inh = blocks Lassa virus binding to or entry into cells; Lassa virus pseudotype entry inhibition, cell reporter; control for the full effect not named in the record; Potency, µM (top dose mostly 37.9 µM), inactives show at the top dose activity change, negative = inhibition, actives largely listed as inhibitors; 300,000 tested, 1.2% active; AID 540256; active means well fitted inhibition curve with a large enough effect; inconclusive means small, poorly fitted or top-dose-only effect, or effect the other way; inactive means flat fitted curve, though single readings scatter; tested in HEK293 cells; further: on the % scale 0 is the no-effect control and ±100 the full control effect; nearly all actives have a fitted effect of over 50% in size; luciferase read-out
# RE007 growth inh = less growth of the S. pombe RE007 Vpr strain; Potency, µM (titrated, usually from 92.2 µM), for inactives: at the highest dose activity change, negative = less growth; 360,000 tested, 0.21% active; S. pombe RE007 Vpr strain, BacTiter-Glo ATP luminescence, 24 h; control for the full effect not named in the record; AID 651644; active = well fitted falling curve with a large enough effect; inconclusive = small, poorly fitted or top-dose-only effect; inactive = no such curve, though single readings can be large or run the other way;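 further: on the % scale 0 is the no-effect control and ±100 the full control effect; nearly all actives have a fitted effect of over 50% in size; the assay follows cell death caused by Vpr and the record does not say whether a fall means rescue or toxicity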
#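 Fission yeast strain RE007, carrying one chromosomally integrated HIV-1 vpr copy, was seeded at OD 0.01 in PMG+AL medium with 23 nL pinned compound. After 24 h at 30 °C and 99% humidity, viability was read by BacTiter-Glo luminescence.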
# SARS PLP yeast = inhibitors of SARS-CoV papain-like protease in yeast; S. cerevisiae expressing SARS-CoV PLpro, growth rescue; control for the full effect not named in the record; Potency, µM (titrated, usually from 32.9 µM), without a hit: top-dose activity, positive = growth rescue; AID 485353; 330,000 tested, 0.19% active; active means well fitted rising curve with a large enough effect; inconclusive means small, poorly fitted or top-dose-only effect; inactive means no such curve, though single readings can be large or run the other way; further: 0% is about no effect; nearly all actives have a fitted effect of over 55% in size; growth read by luminescence after 48 h
# NS1 inh = blocks influenza NS1 protein function; 270,000 tested, 0.4% active; Potency, µM (titrated, usually from 46.1 µM), for inactives: top-dose activity, positive = more growth; AID 2326; S. cerevisiae slowed by influenza A NS1, growth recovery by OD600; active means well fitted rising curve with a large enough effect; inconclusive means small, poorly fitted or top-dose-only effect; inactive means no such curve, though single readings can be large or run the other way; further: nearly all actives have a fitted effect of over 50% in size
#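 S. cerevisiae expressing influenza A NS1, grown in glucose, washed, then diluted 1:100 into pH 6.0 -URA galactose medium with 23 nl compound. Growth recovery read as OD600; NS1-free strain serves as control.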
# Cruzain Triton = inhibitors of Trypanosoma cruzi cruzain with detergent; P25779; 200,000 tested, 0.43% active; purified cruzain, Z-FR-AMC fluorescence, 0.01% Triton; Potency, µM, without a hit: max response, negative = inhibition, hits mostly inhibitors;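 further: plate controls were neutral wells for no effect and buffer without enzyme for full effect; nearly all actives have a fitted effect of over 40% in size; top concentration of the series not given in the record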
#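 In this qHTS format, compounds are incubated with 1.5 nM cruzain for 15 min at room temperature before 2 uM Z-FR-AMC is added. Release of AMC is followed at 360/450 nm, and progress is taken as the 60 s fluorescence difference.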
# The depositor's hits bear a star; ? = inconclusive; nt = not tested or not shown; [ ] = another dose, or the depositor's remark. Unless noted, the call rests on the fitted dose curve; in most records, active means well fitted curve in the direction sought with a large enough effect; inconclusive means small, poorly fitted or top-dose-only effect, or another doubt; inactive means no such curve, though single readings can be large; an effect the other way counts as inactive or inconclusive. Potency means the concentration at half of the fitted maximal effect.
Structure | StopGo reporter | Marburg entry inh | Cruzain noTriton | Lassa entry inh | RE007 growth inh | SARS PLP yeast | NS1 inh | Cruzain Triton
O=C(Cn1nnc(-c2ccc(CN3CCOCC3)cc2)n1)N1CCCc2ccccc21 | -20% | 1% | -12% | -5% | -13% | 0% | -18% | -8.7%
CCOC(=O)C1(CCc2ccccc2)CCN(C(=O)c2occc2C)CC1 | 6% | -3%[46.1 µM] | nt | ? | 1% | 0% | -4% | nt
O=C(C1CCCN(S(=O)(=O)c2cccc3nsnc23)C1)N1CCc2ccccc21 (configuration not stated) | 25µM* | -17% | -11% | -2% | 3% | -14% | 6% | -4.0%
Cc1ccc(C(=O)NCCc2csc(-c3cccnc3)n2)cc1 | 6% | nt | 12% | nt | 5% | -9% | -4% | -0.7%
COc1ccc(CCNC(=O)CCc2c(C)nc3nc(C)nn3c2C)cc1OC | 7% | 3%[46.1 µM] | -10% | 12%[46.1 µM] | nt | nt | nt | 1.2%
Cc1cc(C)nc(NS(=O)(=O)c2ccc(NC(=O)CSc3nc(-c4ccccc4)c(C#N)c(=O)[nH]3)cc2)n1 | 16% | ? | nt | 17%[46.1 µM] | -3% | 6% | nt | nt
S=c1[nH]nc(Cc2noc3ccccc23)n1-c1ccc(Cl)cc1 | -14% | -4%[46.1 µM] | nt | 3% | 12% | 0% | 3% | nt
Cc1c(C(c2cccc(O)c2)c2c(C)n(C)n(-c3ccccc3)c2=O)c(=O)n(-c2ccccc2)n1C | -5% | 17% | -9% | 0% | -11% | -6% | 3% | -1.2%
N#Cc1c(SCC(=O)Nc2ccccc2C(F)(F)F)sc2c(O)cc(=O)[nH]c12 | 9% | -12%[46.1 µM] | nt | 11%[46.1 µM] | -4% | 3% | ? | nt
CCCCN(CC)C(=O)c1cc2cc3ccc(OC)cc3nc2o1 | 7% | ? | -11% | -14% | 24% | -5% | -15% | -25%
CCCC(=O)Nc1ccc(S(=O)(=O)Nc2cc(OC)nc(OC)n2)cc1 | 2% | nt | nt | nt | -1% | 9% | 6% | nt
O=C(O)C1CCN(c2ccc(S(=O)(=O)N3CCC(C(=O)O)CC3)cc2[N+](=O)[O-])CC1 | 8% | 18% | nt | 4% | 0% | 3% | 1% | nt
COC(=O)[C@H](CCSC)NC(=O)c1cccnc1SC | 0% | nt | nt | nt | 11% | 0% | 5% | nt
COc1ccc(-n2c(C)nnc2SCC(=O)N2CCOCC2)cc1 | 17% | 15%[46.1 µM] | nt | 1%[46.1 µM] | -8% | -2% | 16% | nt
CCC(NC(=O)C1CCC1)c1ccc(C)cc1 (configuration not stated) | -21% | 17% | -6% | -3% | 27% | 9% | 3% | 1.3%
O=C(NNC1=C(C(=O)C(F)(F)F)CCC1)c1ccncc1 | 1% | 9%[46.1 µM] | nt | 14% | 33% | 1% | 4% | nt
NC(=O)C1C2CCC(C2)C1C(N)=O (configuration not stated) | 2% | 25% | nt | 23% | -9% | nt | nt | nt
Cn1nc(C(F)(F)F)c(C(=O)Nc2ccc(F)cc2F)c1Sc1ccc(C(F)(F)F)cc1 | ? | -11% | 7% | -6% | -7% | 3% | 18% | -3.8%
CC1CCC(NC(=O)C2CCC(CNS(=O)(=O)c3cccc4nsnc34)CC2)CC1 (configuration not stated) | -19% | nt | -2% | nt | 5% | 4% | 2% | 2.1%
Cc1nnc(SCc2nnc(-c3ccccc3Br)o2)n1-c1ccccc1 | nt | 6% | -4% | 0% | -8% | 1% | -3% | -2.1%
CCOc1ccccc1CNc1nc2ccccc2n1C | -3% | nt | nt | nt | -3% | 15% | 1% | nt
COc1ccc(C(=O)N=c2sc3ccccc3n2C)cc1 | 13% | ? | nt | ? | -10% | 1% | 11% | nt
CN1CCN(CCNC(=O)Nc2ccc([N+](=O)[O-])cc2)CC1 | 0% | nt | nt | nt | -10% | 1% | -4% | nt
COc1ccc(-c2noc(CCC(=O)N(C)c3cccc(C)c3)n2)cc1 | -21% | -14% | 11% | ? | 0% | -1% | -82% | -2.0%
Cc1c(O)ccc(C(=O)CN2CCN(c3ccccc3)CC2)c1O | 3% | nt | nt | nt | 15% | 14% | -6% | nt
CN(CC(=O)Nc1ccc(N2CCOCC2)cc1)Cc1c(O)ccc2ccccc12 | -15% | 4%[46.1 µM] | nt | nt | -18% | -11% | nt | nt
Cc1cccc(OCCNC(=O)c2ncn[nH]2)c1 | -10% | ? | -14% | 26% | -2% | -2% | 17% | 0.9%
Cc1nc2cc(C(F)(F)F)ccc2n1CCNc1nc(-c2cc(Cl)c(N)c(Cl)c2)cs1 | -29% | nt | nt | nt | -10% | -3% | 10% | nt
Cc1ccc(S(=O)(=O)NCCC(=O)Nc2ccc(S(=O)(=O)NC(C)C)cc2)cc1 | 20% | -23%[46.1 µM] | nt | 7% | 5% | 8% | -12% | nt
CCOc1ccc(NC(=O)C2CCCN(S(=O)(=O)c3ccc4c(c3)CC(C)N4C(C)=O)C2)cc1 (configuration not stated) | -19% | 0%[46.1 µM] | nt | -9%[46.1 µM] | -2% | 0% | -6% | nt
Cc1ccc2[nH]c3c(c2c1)CN(C(=O)CN1CCN(c2ccccn2)CC1)CC3 | -24% | -25% | -4% | 3% | 7% | -5% | 5% | -1.5%
COc1ccc(COC(=O)c2sc3nc4n(c(=O)c3c2C)CCC4)cc1 | -24% | ? | nt | -12% | 43% | 4% | nt | nt
O=C(Nc1ccccc1)NC1CCCc2ccccc21 (configuration not stated) | 0% | nt | nt | nt | -12% | -1% | -7% | nt
Cc1cc(C)n2c(Nc3ccc4c(c3)OCCO4)c(-c3ccc(Cl)cc3)nc2n1 | 0% | 16%[46.1 µM] | -17% | -21%[46.1 µM] | nt | nt | nt | -5.8%
COc1ccc(-c2nc(SCC(=O)NCCCc3ccccc3)n[nH]2)cc1 | -10% | nt | 7% | ? | nt | nt | nt | -0.8%
Cc1ccc(N(CC(O)Cn2c3ccccc3c3ccccc32)S(=O)(=O)c2ccc(F)cc2)cc1 (configuration not stated) | ? | ? | 8% | -19%[46.1 µM] | nt | nt | nt | 11%
Cn1cccc1CC(=O)NNC(=S)NC(=O)c1ccc(F)cc1 | 13% | nt | nt | nt | -10% | -3% | -1% | nt
CCC(=O)N1CCN(c2ccnc3cc(Cl)ccc23)CC1 | -8% | 16%[46.1 µM] | nt | 10%[46.1 µM] | -6% | -1% | -4% | nt
Cc1ccccc1NC(=O)C1CCN(C(=O)NC2CCCCC2)CC1 | 8% | -12%[46.1 µM] | nt | nt | -2% | 0% | -13% | nt
O=C(CSc1nnc(Cc2ccccc2)o1)NCCc1ccccc1 | 14% | 2% | -4% | -5% | 4% | nt | -6% | 4.6%

# Reprinted from the results shown (7 entries):
Structure | StopGo reporter | Marburg entry inh | Cruzain noTriton | Lassa entry inh | RE007 growth inh | SARS PLP yeast | NS1 inh | Cruzain Triton
Cc1cc(C)n2c(Nc3ccc4c(c3)OCCO4)c(-c3ccc(Cl)cc3)nc2n1 | 0% | 16%[46.1 µM] | -17% | -21%[46.1 µM] | nt | nt | nt | -5.8%
COc1ccc(-c2nc(SCC(=O)NCCCc3ccccc3)n[nH]2)cc1 | -10% | nt | 7% | ? | nt | nt | nt | -0.8%
Cc1ccc(N(CC(O)Cn2c3ccccc3c3ccccc32)S(=O)(=O)c2ccc(F)cc2)cc1 (configuration not stated) | ? | ? | 8% | -19%[46.1 µM] | nt | nt | nt | 11%
Cn1cccc1CC(=O)NNC(=S)NC(=O)c1ccc(F)cc1 | 13% | nt | nt | nt | -10% | -3% | -1% | nt
CCC(=O)N1CCN(c2ccnc3cc(Cl)ccc23)CC1 | -8% | 16%[46.1 µM] | nt | 10%[46.1 µM] | -6% | -1% | -4% | nt
Cc1ccccc1NC(=O)C1CCN(C(=O)NC2CCCCC2)CC1 | 8% | -12%[46.1 µM] | nt | nt | -2% | 0% | -13% | nt
O=C(CSc1nnc(Cc2ccccc2)o1)NCCc1ccccc1 | 14% | 2% | -4% | -5% | 4% | nt | -6% | 4.6%

# (cont.)
Structure | StopGo reporter | Marburg entry inh | Cruzain noTriton | Lassa entry inh | RE007 growth inh | SARS PLP yeast | NS1 inh | Cruzain Triton
CN1CCN(C(c2ccc(F)cc2)c2sc3nc(-c4ccco4)nn3c2O)CC1 (configuration not stated) | -19% | nt | -6% | ? | nt | nt | nt | -1.4%
O=C(O)C1=CC(c2ccc(Br)cc2)n2ncnc2N1 (configuration not stated) | -20% | 2%[46.1 µM] | 1% | 20%[46.1 µM] | nt | nt | nt | -0.6%
CCC(=O)N1CCN(c2ccc(NC(=O)COc3ccccc3Cl)cc2)CC1 | 32µM* | ? | 11% | ? | -16% | -7% | -5% | -9.0%
Clc1cccc(-c2nc(NCCCN3CCOCC3)c3ccccc3n2)c1 | -18% | nt | nt | nt | -8% | -2% | 0% | nt
O=C(N1CCOCC1)N1CCN(c2ccccc2)CC1 | -22% | -7% | -5% | 17% | 2% | -1% | 1% | 3.5%
Cc1cc2oc(=O)cc(CN3CCN(Cc4ccccc4)CC3)c2cc1Cl | ? | 10% | -16% | 17% | -8% | 10% | ? | 2.1%
CCOc1ccc(CNC(=O)CCS(=O)(=O)c2cc3c4c(c2)CCN4C(=O)CC3)cc1 | -2% | nt | -3% | -12%[46.1 µM] | nt | nt | nt | 3.1%
COc1ccc(S(=O)(=O)Nc2cccc(N(C)S(C)(=O)=O)c2)cc1Br | 0% | ? | -3% | ? | -24% | 27% | 0% | -3.9%
COc1cc(OC)cc(C2(C#N)CCN(C)CC2)c1 | -8% | nt | nt | nt | 16% | 0% | 0% | nt
O=C(O)c1ccc(Oc2ccc([N+](=O)[O-])cc2)c([N+](=O)[O-])c1 | -4% | 11% | nt | 14% | 7% | nt | nt | nt
CCOCCn1c(CN2CCC(Cc3ccccc3)CC2)nc2c1c(=O)n(C)c(=O)n2C | nt | -13% | -1% | ? | -8% | 1% | -4% | 2.8%
